From PubChem
FGF22 binding: binders of recombinant human FGF22 by thermal shift; SYPRO orange fluorescence; percent of sucrose octasulfate shift, DMSO zero; Q9HCT0; calls only at 9.99 µM; 340,000 tested, 1.5% active;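 active = melting point raised past a set limit in the mean and every replicate; inconclusive = no clear call; three in four hits are not shown here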
Vif TR-FRET: HIV-1 Vif–A3G interaction blockers – biochemical, TR-FRET, GST-Vif 1-94, biotin-A3G peptide, dose response retest, primary screen (AID 1117319); TR-FRET GST-Vif / biotin-A3G peptide binding; higher % means a stronger effect; test concentration not given here; strong numbers were not always called active; inhibition, %, or IC50 in µM where a hit was titrated; 260,000 tested, 0.57% active;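 active = above the screen mean plus three standard deviations and confirmed in dose response; inconclusive = results disagree or hit not tested in dose response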;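 also: Vif residues 1-94 fused to GST binding biotinylated APOBEC3G peptide 110-148; 0% = full assay without inhibitor and 100% = GST in place of GST-Vif; retest series ran down from 100 µM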
HNF4A DNA FP: change in binding of human HNF4 alpha to DNA; activity change, % at 10 µM; P41235; 360,000 tested, 0.3% active; AID 1224865; HNF4a-FITC DNA binding, fluorescence polarization, 1 h; in the data active = activity change above about 30%, passing the limit was not always enough;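 also: controls were the assay level and a saturating level of protein; the project sought stronger binding though the title names inhibitors; some compounds called inactive have numbers as strong as hits; positive values seem to mean higher polarization but the record does not say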
RanGTP-Impb inh: disruptors of Ran-importin-beta complex formation – biochemical, FRET, CFP-Ran, YFP-importin-beta, homogeneous, primary screen; inhibition, % (test concentration not listed); cell-free CFP-Ran/YFP-importin-beta FRET ratio; 300,000 tested, 1.1% active; AID 2216;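 active = most replicates above 15%; inconclusive = exactly half above 15%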;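 also: 0% = DMSO wells and 100% = Ran loaded with GDP instead of GTP; wells of about 40 µL received 100 nL stock; the first replicate is given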
AF4-AF9 inh: MLL-AF4/AF9 protein interaction inhibition. 350,000 tested, 0.47% active. P42568. inhibition, % at 10 µM. AlphaScreen, biotin-AF4 peptide binding to FLAG-AF9;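 active = every replicate reaching a set inhibition limit, whatever the replicate mean, cut at about 25% in these data; inconclusive = mean inhibition reaches that limit but some replicates miss it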;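 also: 0% = plate neutral control median and 100% = total signal loss; the record names both 10 and 1 µM as test concentration; the first replicate is given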
Target sequence (P42568 whole entry, looked up): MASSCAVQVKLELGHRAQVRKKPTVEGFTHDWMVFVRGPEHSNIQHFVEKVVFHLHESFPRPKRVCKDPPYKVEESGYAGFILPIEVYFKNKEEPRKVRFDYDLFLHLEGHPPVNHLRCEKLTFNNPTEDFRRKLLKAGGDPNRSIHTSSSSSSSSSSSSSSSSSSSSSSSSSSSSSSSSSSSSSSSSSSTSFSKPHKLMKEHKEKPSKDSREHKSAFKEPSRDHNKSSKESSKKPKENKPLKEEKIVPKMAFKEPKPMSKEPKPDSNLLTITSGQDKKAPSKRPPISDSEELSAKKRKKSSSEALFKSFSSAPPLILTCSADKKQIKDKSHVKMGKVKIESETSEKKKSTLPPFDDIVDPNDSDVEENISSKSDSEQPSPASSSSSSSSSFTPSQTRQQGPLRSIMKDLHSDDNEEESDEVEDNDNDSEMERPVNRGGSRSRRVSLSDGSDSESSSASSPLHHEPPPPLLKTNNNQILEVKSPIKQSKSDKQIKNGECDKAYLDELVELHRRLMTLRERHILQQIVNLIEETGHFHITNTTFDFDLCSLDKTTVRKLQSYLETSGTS
E coli growth: blocks Escherichia coli growth | OD600, 23 h; stronger effect = lower value | OD600 absorbance (test concentration not listed) | 330,000 tested, 0.21% active;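 active = OD600 absorbance below the run mean of sample wells minus 3.6 SD, in any replicate, cut at about 0.56 in these data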;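 also: stock transfer was 300 nL into about 60 µL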
UCH37 inh: inhibitors of human deubiquitinating enzyme UCH37. Q9Y5K5. purified proteasome/UCH37, Ub-AMC cleavage fluorescence. inhibition, % (test concentration not listed). 330,000 tested, 0.33% active;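 active = mean of two replicates above 20%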;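 also: 0% = compound-free wells with enzyme and 100% = wells lacking proteasome; stock transfer was 100 nL into about 20 µL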
Target sequence (Q9Y5K5 whole entry, looked up): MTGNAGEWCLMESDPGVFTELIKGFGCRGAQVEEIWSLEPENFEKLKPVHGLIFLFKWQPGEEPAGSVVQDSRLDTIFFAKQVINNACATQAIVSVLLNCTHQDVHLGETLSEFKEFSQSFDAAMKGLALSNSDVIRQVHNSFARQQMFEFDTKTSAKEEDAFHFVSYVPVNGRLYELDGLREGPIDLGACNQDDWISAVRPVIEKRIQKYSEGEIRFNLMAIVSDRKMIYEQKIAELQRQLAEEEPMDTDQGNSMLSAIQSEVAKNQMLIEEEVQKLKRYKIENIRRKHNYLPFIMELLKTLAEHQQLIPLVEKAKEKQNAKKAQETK
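assay system = human UCH37 enzyme supplied as purified proteasome complex | amount = proteasome at 0.15 nM in the dispensed enzyme solution | schedule = 30 min compound-proteasome preincubation then 25 min substrate reaction, room temperature | measured by = fluorescence, ex 355 nm, em 460 nm | benchmarks = no-proteasome wells (full inhibition) and compound-free wells (no inhibition)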
Starred values were filed as active, the others as inactive; i = inactive; ? = inconclusive; · = not tested or not shown; & = joins results of further samples. An excerpt; the hit share may differ from the screen's.

RanGTP-Impb inh	AF4-AF9 inh	HNF4A DNA FP	E coli growth	Molecule	UCH37 inh	Vif TR-FRET	FGF22 binding
?	-11.5	3.5	0.661	CCN(CC(=O)Nc1ccc(NC(C)=O)cc1)C(=O)c1cc(CN2C(=O)c3ccccc3C2=O)ccc1OC	1.0	5.4%	i
4.0	0.1	-0.9	0.641	CC(=O)c1cccc(NC(=S)N2CCC(Cc3ccccc3)CC2)c1	0.7	23.3%	i
-2.1	-4.7&-2.8	2.3	·	CCO[C@@H]1OC(C(=O)O)=C[C@H](c2csc3ccccc23)[C@H]1CCCO	1.6	·	i
-2.2	0.4	2.3	0.671	CCOC(=O)C1(Cc2cccc(Cl)c2)CCCN(C(=O)c2cccnc2)C1 (stereo not drawn)	0.7	8.1%	·
-1.9	2.4	1.1	0.646	CC(C)c1nc(SCC(=O)Nc2nccs2)c2ccccc2n1	3.2	-1.3%	i
0.0	1.8	-3.1	0.666	CCCC(C(=O)NCCC(C)C)N(Cc1ccc(F)cc1)C(=O)c1snc(C(N)=O)c1N (stereo not drawn)	-26.0	·	i
1.3	·	1.9	0.795	O=C(COc1ccc(OCc2ccccc2)cc1)NC1CCOC1=O (stereo not drawn)	1.8	-4.8%	·
18.5*	·	-4.3	0.684	CCc1ccc(-c2nc(CSCC(=O)N3CCN(c4ccccn4)CC3)c(C)o2)cc1	2.4	?	·
-4.1	·	-1.7	0.649	O=S(=O)(c1cccc(C(F)(F)F)c1)N1CCN(c2ccccc2)CC1	3.7	67.0%	·
1.2	·	1.8	0.713	Cc1ccc(OC(=O)c2ccc(S(=O)(=O)N(C)C)cc2)c(-n2nc3ccccc3n2)c1	0.1	5.5%	·
5.8	·	-4.2	0.657	COc1ccc(/C=C/C(=O)NCc2ccccn2)cc1	4.4	·	·
2.4	·	0.0	0.68	O=C(c1ccc(COc2ccccc2Br)cc1)N1CCCCC1	2.0	0.3%	·
-3.5	·	-4.0	0.662	COC(=O)N1CCN(S(=O)(=O)c2ccc(F)cc2)CC1	5.8	15.2%	·
-3.5	-3.6	3.3	0.665	CN(C)S(=O)(=O)c1cccc(NC(=O)CCCc2nc3ccccc3c(=O)[nH]2)c1	3.0	1.0%	i
2.2	·	-1.4	0.732	COc1cccc(Oc2nc3ncn(Cc4ccccc4)c3c(=O)n2C)c1	2.0	5.0%	·
4.5	·	2.6	0.718	Cc1c(CN2CCN(c3cccc(C(F)(F)F)c3)CC2)c(=O)n(-c2ccccc2)n1C	2.3	11.4%	·
·	-0.8	-1.4	0.676	N#Cc1ccccc1COC(=O)CCC(=O)c1cccs1	-0.6	-2.6%	i
1.1	-0.6	-1.9	0.706	Cc1ccc(CNC(=O)c2cc(Cl)cc(Cl)c2)n1C	11.4	6.5%	i
-1.7	·	2.4	0.703	CC(=O)N1CCN2C(=O)C1CCCC(=O)c1cc(C3CCCCC3)ccc12 (stereo not drawn)	-0.7	22.9%	·
2.4	0.0	0.9	0.728	COc1ccc(N2C(=O)C3CCCN3C2c2ccc(C)cc2)cc1 (stereo not drawn)	0.0	79.9%	i
3.2	2.4	1.4	0.71	CN(C)c1ccc(C(C(=O)NC2CCCC2)N(C(=O)c2csnn2)C2CC2)cc1 (stereo not drawn)	-1.5	-5.2%	i
10.7	-1.7	-1.2	0.634	O=C(NCc1ccc2c(c1)OCO2)C(=O)NCC1OCCN1S(=O)(=O)c1ccc(Cl)cc1 (stereo not drawn)	-0.2	·	i
-2.6	·	-1.3	0.673	Cc1ccc(NC(=O)Cn2cccc2)c(Br)c1	2.7	6.9%	·
0.7	1.8	-1.1	0.695	COc1ccc(CN2CCN(Cc3ccco3)CC2)cc1	3.0	·	i
-0.7	·	-0.6	0.699	Cc1ccc(NC(=O)CC2SC(=O)NC2=O)cc1 (stereo not drawn)	-27.1	16.0%	·

The final 2 records of the part before open the next one.
RanGTP-Impb inh	AF4-AF9 inh	HNF4A DNA FP	E coli growth	Molecule	UCH37 inh	Vif TR-FRET	FGF22 binding
0.7	1.8	-1.1	0.695	COc1ccc(CN2CCN(Cc3ccco3)CC2)cc1	3.0	·	i
-0.7	·	-0.6	0.699	Cc1ccc(NC(=O)CC2SC(=O)NC2=O)cc1 (stereo not drawn)	-27.1	16.0%	·
-3.7	-8.7	0.4	0.665	Cc1[nH]c2ccccc2c1SCC(=O)N1CCOCC1	1.9	7.7%	i
1.7	·	0.7	0.707	O=C(O)C1CCCCC1C(=O)NC1CCCCC1 (stereo not drawn)	5.0	13.8%	·
?	-8.2	-2.7	0.672	Cc1onc(-c2c(F)cccc2Cl)c1C(=O)OCc1cnc(Cl)s1	3.8	·	i
0.1	·	0.2	0.652	COCCSc1ccccc1C(=O)N1CCCC1	3.3	-5.8%	·
·	-20.9	0.0	0.633	COc1cccc(C(=O)NOCc2ccc(C)cc2)c1OC	1.5	-0.8%	i
3.2	5.8	4.2	0.663	C=CCNCCOc1c(C)cc(C)cc1Cl	-0.6	-1.7%	i
2.2	1.0	1.6	0.668	O=c1onc(-c2ccccc2Cl)n1-c1ccccc1Cl	5.6	·	i
·	-1.7	-0.3	·	CC1CCCCC1NC(=O)c1cc(Cl)nc2ccccc12 (stereo not drawn)	·	·	i
·	-2.4	4.3	0.756	CC(Sc1ccc(S(=O)(=O)N2CCOCC2)cn1)c1ccccc1Cl (stereo not drawn)	2.0	-1.7%	i
-1.4	·	0.2	0.689	Cc1ccc(NC(=O)C2CCCNC2=O)nc1 (stereo not drawn)	2.0	-4.1%	·
-2.0	-3.9	1.7	·	Cc1ccc2nc(-c3ccc(NC(=O)CCN4C(=O)c5ccccc5C4=O)cc3)sc2c1	·	·	i
·	6.5	1.9	0.669	CCN1CCN(C(c2cccnc2)c2c(NC(=O)c3ccco3)sc(C)c2C)CC1 (stereo not drawn)	7.2	·	i
·	-1.1	-3.6	0.667	COc1cc(OC)cc(C(=O)NNC(=O)CCNS(=O)(=O)c2ccc(C)c(C)c2)c1	3.3	5.3%	i
·	-6.7	0.9	·	CC(=O)Nc1ccc(CN2CCC(N3CCC(C(=O)NC4CC4)CC3)CC2)cc1	·	-1.4%	i
-1.4	6.9	-1.4	0.683	COCCN1C(=O)c2[nH]nc(-c3ccccc3O)c2C1c1ccc(OC)cc1 (stereo not drawn)	0.6	4.2%	i
-1.1	4.6	-2.1	·	O=[N+]([O-])c1cc(/C=N\Nc2nc(-c3ccccc3)cs2)ccc1O	·	?	i
-3.5	·	-0.5	0.676	CCOC(=O)c1c(C=O)c(C)n(Cc2ccc(Cl)cc2)c1C	1.1	-1.6%	·
-1.0	1.5	-4.7	0.699	CCC[N+]1(CC#CC(O)(c2ccccc2)C2CCCCC2)CCCCC1 (stereo not drawn)	1.8	14.9%	i
1.5	-13.6	-1.2	0.65	COC(=O)c1cn(Cc2cccc(C)c2)nn1	0.5	4.5%	i
1.2	3.5	-1.1	0.685	COc1ccc(OCCC(=O)Nc2ccccc2)cc1	-0.3	·	i
·	0.7	-2.9	·	CCCS(=O)(=O)NC(=O)C1(C)CCCN(C(=O)CCc2cccs2)C1 (stereo not drawn)	·	·	i
1.8	1.1	-2.0	·	COc1cc(/C=N/NC(=O)c2cc(-c3ccccc3C)nc3ccccc23)cc(OC)c1O	·	·	i
-0.2	·	2.2	0.664	CN(C(=O)CSc1ncccc1C(=O)O)c1ccccc1	-0.1	3.7%	·
-4.3	·	0.3	0.739	CCOC(=O)Nc1cccc(C(=O)O)c1	-3.0	6.2%	·
3.1	0.1	8.0	0.672	O=C(Nc1ccccc1N1CCOCC1)c1cccnc1Cl	4.0	·	i
2.8	-3.2	-0.1	0.753	CSc1nc2ccc3nc(NC(=O)C4COc5ccccc5O4)sc3c2s1 (stereo not drawn)	-0.3	-4.6%	i
2.7	1.5	2.2	0.683	CCC1CN(C(=O)NCc2ccc(C)cc2)c2cc(C)ccc2O1 (stereo not drawn)	4.5	-0.8%	i
-0.5	-3.0	6.8	0.621	O=C1CN(Cc2nc3cc(Cl)ccc3c(=O)[nH]2)CCN1	0.1	?	i
8.1	·	5.4	0.665	C=CCc1ccc(OCCCCN2CC(C)OC(C)C2)c(OC)c1 (stereo not drawn)	4.7	66.5%	·
3.0	·	1.4	0.625	Cc1cc(C)n(S(=O)(=O)c2cc(C)c(C)cc2C)n1	1.5	-2.0%	·
5.2	1.1	0.7	0.689	CCCCSc1nnc(-c2ccccc2)c2ccccc12	3.2	-0.4%	i
1.1	4.7	-4.0	0.688	Cc1cc(Cl)ccc1NC(=O)CN1C(=O)NC2(CCCc3ccccc32)C1=O (stereo not drawn)	0.6	6.5%	i
?	0.8	0.3	·	CSc1sc(C#N)c2c1/C(=N\O)CCC2	·	-6.2%	i
-4.6	·	-3.4	0.684	Cc1c(=O)n(OCc2ccccc2F)c2ccccc2[n+]1[O-]	-10.0	10.7%	·
·	6.6	-2.8	·	NCCCC[C@@H](C(=O)N1CCNCC1)n1cc([C@@H](N)CC(N)=O)nn1	0.0	·	i
·	1.0	9.6	·	COCCCNc1ccn2nc(-c3ccc(OCc4ccccc4)cc3)cc2n1	·	·	i
-2.0	·	5.4	0.678	CCOc1ccccc1CNCCO	1.5	-3.7%	·
-3.6	·	-1.4	0.744	CCNC(=O)CSc1nc2ccccc2c(=O)n1CCCOC(C)C	1.6	-3.8%	·
1.6	-10.8	0.1	0.684	CN1CCSc2ccc(C(=O)Nc3cc(F)ccc3F)cc21	-177.3	-10.6%	i
·	-0.6	-1.0	0.698	Cc1ccc(NS(=O)(=O)c2ccc(C(C)C)cc2)cc1S(=O)(=O)N1CCOCC1	4.3	·	i
1.9	-2.5	3.7	0.678	CCn1ccnc1CNC(=O)c1ccc2oc(C(C)C)nc2c1	-1.3	·	i
2.9	-41.5	-1.7	·	CCOc1ccccc1/C=N/NC(=O)c1cc(C(C)C)[nH]n1	·	-6.9%	i
2.7	-0.1	-2.1	0.679	C/C(Cl)=C\Cn1c(NCCc2ccccc2)nc2c1c(=O)n(C)c(=O)n2C	1.4	15.3%	i
0.0	·	-2.6	0.672	O=C(OCC(=O)N1CCCC1)c1cncc(Br)c1	2.8	6.2%	·
0.4	·	1.5	0.68	O=C(O)C1CC(=O)N(CCc2c[nH]c3ccccc23)C1 (stereo not drawn)	3.7	2.0%	·
-4.1	7.8	6.4	0.678	Cc1ccc(-c2csc3ncnc(Oc4ccc5c(C)cc(=O)oc5c4)c23)cc1	-23.7	15.0%	i
-2.3	·	-4.0	0.656	O=C1OC(NC(=O)c2ccccc2)C(N2CCOCC2)=C1Cl (stereo not drawn)	3.5	-5.3%	·
-1.8	3.1	1.0	0.681	COc1ccc(CCNC(=O)CCc2ccc(S(=O)(=O)NC(C)C)cc2)cc1	2.4	·	i
